Hedgehog = Drosophila hedgehog isoform A inhibitors, primary screen, biochemical, plate reader, single concentration (AID 588832); Biochemical plate reader assay, Hedgehog inhibition; stronger effect = higher value; 8,000 tested, under 10 active; inhibition, % at 30.3 µM; in the data active means inhibition from about 57%;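 further: 0% = neutral control wells and 100% = positive control wells; cholesterol-driven self-cleavage of fly hedgehog protein by fluorescence polarization; read one hour after cholesterol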
Numbers without * were called inactive. Not all compounds are listed (hit frequency here may not be typical).

| Molecule | Hedgehog |
| --- | --- |
| O=C(/C=C/c1ccc(Br)cc1)NC(=S)N1C[C@H]2C[C@H](C1)c1cccc(=O)n1C2 | 5 |
| CCC(C)C1NC(=O)C(C(C)=O)=C1O (stereo unspecified) | 10 |
| C=CCc1ccc(OC)cc1 | 7 |
| C/C(=C/C=C/[C@@H](C)C(=O)O)[C@H]1CN[C@H](C(=O)O)[C@H]1CC(=O)O | 7 |
| CCN1C[C@@]2(COC)C3[C@@H](OC)[C@H]4[C@@H]1[C@@]3(C1C[C@H]3[C@H](O)C1[C@]4(O)C[C@H]3OC)[C@@H](OC)C[C@H]2O (stereo partly specified) | 7 |
| C=C(C)[C@@]12OC3(c4ccccc4)O[C@@H]1C1[C@@H]4O[C@]4(CO)[C@@H](O)[C@]4(O)C(=O)C(C)=C[C@H]4[C@@]1(O3)[C@H](C)[C@H]2OC(=O)/C=C/C=C/c1ccccc1 (stereo partly specified) | 3 |
| Nc1ccc([N+](=O)[O-])cc1 | 9 |
| CC1(C)C[C@H]2C=C(C=O)[C@]3(C=O)C[C@]3(C)[C@H]2C1 | 0 |
| COc1ccc(NC(=O)N2C[C@@H]3C[C@@H](C2)c2cccc(=O)n2C3)c(OC)c1 | 9 |
| C=C1C[C@]2(O)[C@@]3(C)CCC(=O)C(C)(C)C3=C(O)C(=O)[C@@]2(C)[C@@H]2C(=O)O[C@@](C)(C(=O)OC)C(=O)[C@@]12C | 3 |
| COc1cc(CC(=O)N2C[C@H]3C[C@@H](C2)c2cccc(=O)n2C3)cc(OC)c1OC | 5 |
| CCC1C2CC3C4N(C)c5ccccc5C45CC(C2C5O)N3C1O (stereo unspecified) | 5 |
| C/C=C(\C)C(=O)N[C@@H](c1ccccc1)[C@@H](O)C(=O)O[C@H]1C[C@@]2(O)[C@@H](OC(=O)c3ccccc3)C3[C@](C)(C(=O)[C@H](OC(C)=O)C(=C1C)C2(C)C)[C@H](O)C[C@H]1OC[C@@]31OC(C)=O (stereo partly specified) | 7 |
| COc1ccc2[nH]c3c(c2c1)CCNC3 | 2 |
| O=C(O)C1C(C(=O)O)C2(Cl)C(Cl)=C(Cl)C1(Cl)C2(Cl)Cl (stereo unspecified) | 5 |

Next records follow.
| Molecule | Hedgehog |
| --- | --- |
| CC[C@H]1CN(C)CCc2c([nH]c3ccccc23)C(=O)C[C@@H]1/C(=C\OC)C(=O)OC | 2 |
| CCCCCC(=O)N[C@@H](c1ccccc1)[C@@H](O)C(=O)O[C@H]1C[C@@]2(O)[C@@H](OC(=O)c3ccccc3)C3[C@](C)(C(=O)[C@H](O)C(=C1C)C2(C)C)[C@@H](OC1OCC(O)C(O)C1O)C[C@H]1OC[C@@]31OC(C)=O (stereo partly specified) | -2 |
| CC(C)OS(C)(=O)=O | 9 |
| C/C=C/CC#N | 5 |
| Cc1ccccc1O | 7 |
| O=c1cccc2n1CC1CC2CN(C(c2ccccc2)c2sc3ncnn3c2O)C1 (stereo unspecified) | 15 |
| Clc1cccc(Cl)c1Cl | 2 |
| CC[C@H]1CN2CC[C@@]3(C(=O)Nc4ccccc43)[C@@H]2C[C@@H]1/C(=C\OC)C(=O)OC | 7 |
| O=C(NC(=S)N1C[C@H]2C[C@H](C1)c1cccc(=O)n1C2)c1ccc(Cl)cc1 | 9 |
| O=c1ccc2c(O)c3ccoc3cc2o1 | 11 |
| C=C1C(=O)OC2CC3(C)OC3C3OC3C3=CC(OC3=O)C12 (stereo unspecified) | 7 |
| C=CCc1cc(OC)c2c(c1)OCO2 | 7 |
| CC(=O)NCCc1c[nH]c2ccccc12 | 7 |
| OCC(Br)CBr (stereo unspecified) | 7 |
| CCOS(C)(=O)=O | 4 |

(next part)
| Molecule | Hedgehog |
| --- | --- |
| O=[N+]([O-])c1ccc(Cl)cc1 | 4 |
| CCCOc1ccc(C(=O)NC(=S)N2C[C@H]3C[C@H](C2)c2cccc(=O)n2C3)cc1 | 5 |
| COc1ccc2c3c([nH]c2c1)C(C)NCC3 (stereo unspecified) | 3 |
| O=C(CCc1ccccc1)N1C[C@H]2C[C@@H](C1)c1cccc(=O)n1C2 | 5 |
| CC(C)[C@H](NC(=O)N1C[C@H]2C[C@@H](C1)c1cccc(=O)n1C2)C(=O)Nc1ccccc1F | 5 |
| BrCC(Br)(Br)Br | 4 |
| CCc1cc(=O)oc2cc(OCC(=O)N3C[C@H]4C[C@@H](C3)c3cccc(=O)n3C4)ccc12 | -2 |
| COC(=O)C1=CO[C@@H](C)[C@H]2CN3CC[C@]4(C(=O)Nc5ccccc54)[C@@H]3C[C@H]12 | 3 |
| C=CCN1C(=O)NC(=O)/C(=C/c2c(CCN(C)C(=O)c3ccccc3)cc3c(c2OC)OCO3)C1=O | 3 |
| COC1=CC23CCCN2CCc2cc4c(cc2C3C1O)OCO4 (stereo unspecified) | 3 |
| N#CC(Br)Br | 9 |
| CN(C)[C@@H]1C(=O)C(C(N)=O)=C(O)[C@@]2(O)C(=O)C3=C(O)c4c(O)ccc(Cl)c4[C@@](C)(O)[C@H]3C[C@@H]12 | 9 |
| CC[C@H](C)/C=C(C)/C=C/C1=CC2=C(Cl)C(=O)[C@](C)(OC(C)=O)C(=O)C2=CO1 | 14 |
| Cc1c(C)c2ccc(OCC(=O)N3CCC(C(=O)O)(c4ccccc4)CC3)cc2oc1=O | 5 |
| CC(C)OC(=O)Cc1ccccc1 | 4 |

Continued:
| Molecule | Hedgehog |
| --- | --- |
| O=[N+]([O-])c1c2ccccc2cc2ccccc12 | 14 |
| C/C=C1/CN2[C@@H]3C4CO[C@@H]3c3c([nH]c5cc(OC)ccc35)[C@@H]2CC14 (stereo partly specified) | 12 |
| C=C1C(=O)[C@@]23C[C@H]4[C@@H]5[C@@]6(C)CCC[C@@]57[C@@H]2[C@@H](O)[C@@H]1C[C@H]3[C@H]7N4C6 | 7 |
| Cc1ccc(C)c(NC(=O)CCNC(=O)N2C[C@H]3C[C@@H](C2)c2cccc(=O)n2C3)c1 | 10 |
| CCCCc1cc(=O)oc2cc(OCC(=O)N3C[C@H]4C[C@@H](C3)c3cccc(=O)n3C4)c(Cl)cc12 | 5 |
| CC(=O)O[C@H]1C[C@@H]2CC[C@@H]3[C@H](CC[C@]4(C)C(=O)CC[C@@H]34)[C@@]2(C)C[C@@H]1OC(C)=O | 5 |
| CC(C)CC(C)N (stereo unspecified) | 2 |
| CC1=CC2/C=C(\C)CCC(O)C(O)/C=C/C(=O)C23C(=O)NC(CC(C)C)C3C1C (stereo unspecified) | 5 |
| CCC1=CCN(CCc2c(C)[nH]c3ccccc23)CC1 | 5 |
| Cc1ccc(N)c(C)c1 | -2 |
| Cn1c(=O)c2c(ncn2CCCl)n(C)c1=O | 7 |
| CCc1ccc(NC(=O)CCNC(=O)N2C[C@H]3C[C@@H](C2)c2cccc(=O)n2C3)cc1 | 3 |
| O=C(Cc1cc(=O)[nH]c(=O)[nH]1)N1CCN(CCO)CC1 | 10 |
| O=C(O)c1ccc(NC(=O)N2C[C@H]3C[C@@H](C2)c2cccc(=O)n2C3)cc1 | 7 |
| CCOc1ccc(NC(=O)N2C[C@H]3C[C@@H](C2)c2cccc(=O)n2C3)cc1 | -2 |

As a working copy, part of the list above:
| Molecule | Hedgehog |
| --- | --- |
| CCc1ccc(NC(=O)CCNC(=O)N2C[C@H]3C[C@@H](C2)c2cccc(=O)n2C3)cc1 | 3 |
| O=C(Cc1cc(=O)[nH]c(=O)[nH]1)N1CCN(CCO)CC1 | 10 |
| O=C(O)c1ccc(NC(=O)N2C[C@H]3C[C@@H](C2)c2cccc(=O)n2C3)cc1 | 7 |
| CCOc1ccc(NC(=O)N2C[C@H]3C[C@@H](C2)c2cccc(=O)n2C3)cc1 | -2 |

A draw from above in order of length of the SMILES, descending:
| Molecule | Hedgehog |
| --- | --- |
| C=C(C)[C@@]12OC3(c4ccccc4)O[C@@H]1C1[C@@H]4O[C@]4(CO)[C@@H](O)[C@]4(O)C(=O)C(C)=C[C@H]4[C@@]1(O3)[C@H](C)[C@H]2OC(=O)/C=C/C=C/c1ccccc1 (stereo partly specified) | 3 |
| C=C1C(=O)[C@@]23C[C@H]4[C@@H]5[C@@]6(C)CCC[C@@]57[C@@H]2[C@@H](O)[C@@H]1C[C@H]3[C@H]7N4C6 | 7 |
| CC(=O)O[C@H]1C[C@@H]2CC[C@@H]3[C@H](CC[C@]4(C)C(=O)CC[C@@H]34)[C@@]2(C)C[C@@H]1OC(C)=O | 5 |
| CCCCc1cc(=O)oc2cc(OCC(=O)N3C[C@H]4C[C@@H](C3)c3cccc(=O)n3C4)c(Cl)cc12 | 5 |
| CC[C@H]1CN2CC[C@@]3(C(=O)Nc4ccccc43)[C@@H]2C[C@@H]1/C(=C\OC)C(=O)OC | 7 |
| Cc1ccc(C)c(NC(=O)CCNC(=O)N2C[C@H]3C[C@@H](C2)c2cccc(=O)n2C3)c1 | 10 |
| C/C(=C/C=C/[C@@H](C)C(=O)O)[C@H]1CN[C@H](C(=O)O)[C@H]1CC(=O)O | 7 |
| CCc1ccc(NC(=O)CCNC(=O)N2C[C@H]3C[C@@H](C2)c2cccc(=O)n2C3)cc1 | 3 |
| CCCOc1ccc(C(=O)NC(=S)N2C[C@H]3C[C@H](C2)c2cccc(=O)n2C3)cc1 | 5 |
| COc1ccc(NC(=O)N2C[C@@H]3C[C@@H](C2)c2cccc(=O)n2C3)c(OC)c1 | 9 |
| O=C(O)c1ccc(NC(=O)N2C[C@H]3C[C@@H](C2)c2cccc(=O)n2C3)cc1 | 7 |
| Cc1c(C)c2ccc(OCC(=O)N3CCC(C(=O)O)(c4ccccc4)CC3)cc2oc1=O | 5 |
| CCOc1ccc(NC(=O)N2C[C@H]3C[C@@H](C2)c2cccc(=O)n2C3)cc1 | -2 |
| O=C(O)C1C(C(=O)O)C2(Cl)C(Cl)=C(Cl)C1(Cl)C2(Cl)Cl (stereo unspecified) | 5 |
| O=c1cccc2n1CC1CC2CN(C(c2ccccc2)c2sc3ncnn3c2O)C1 (stereo unspecified) | 15 |
| C=C1C(=O)OC2CC3(C)OC3C3OC3C3=CC(OC3=O)C12 (stereo unspecified) | 7 |
| COC1=CC23CCCN2CCc2cc4c(cc2C3C1O)OCO4 (stereo unspecified) | 3 |
| CCC1=CCN(CCc2c(C)[nH]c3ccccc23)CC1 | 5 |
| Cn1c(=O)c2c(ncn2CCCl)n(C)c1=O | 7 |
| CCC(C)C1NC(=O)C(C(C)=O)=C1O (stereo unspecified) | 10 |
| COc1ccc2[nH]c3c(c2c1)CCNC3 | 2 |
| CC(=O)NCCc1c[nH]c2ccccc12 | 7 |
| O=c1ccc2c(O)c3ccoc3cc2o1 | 11 |
| C=CCc1cc(OC)c2c(c1)OCO2 | 7 |
| CC(C)OC(=O)Cc1ccccc1 | 4 |
| CC(C)CC(C)N (stereo unspecified) | 2 |
| C/C=C/CC#N | 5 |

Following part
| Molecule | Hedgehog |
| --- | --- |
| Cc1ccc(NC(=O)CCNC(=O)N2C[C@H]3C[C@@H](C2)c2cccc(=O)n2C3)c(C)c1 | 2 |
| C[C@]12C=CC(=O)C=C1CC[C@@H]1[C@@H]2CC[C@]2(C)C(=O)CC[C@@H]12 | 5 |
| C[C@H](NC(=O)N1C[C@H]2C[C@@H](C1)c1cccc(=O)n1C2)C(=O)Nc1cccc(F)c1 | 2 |
| O=C1CCCC2C3CCCN4CCCC(CN12)C34 (stereo unspecified) | 2 |
| O=[N+]([O-])c1cccc2c([N+](=O)[O-])cccc12 | 2 |
| O=[N+]([O-])c1cccc(O)c1 | 7 |
| COc1ccc(CC2c3cc(OC)c(OC)cc3CCN2C)cc1OC (stereo unspecified) | 4 |
| CCC(C)c1cnc(CC(C)C)c(=O)n1O (stereo unspecified) | 9 |
| COC/C=C1\CN2C3C[C@@H]1[C@H]1COC4=Nc5cc(OC)c(OC)c(OC)c5[C@@]43C[C@@H]12 | 10 |
| Nc1ccc(Cc2ccc(N)c(Cl)c2)cc1Cl | 5 |
| COC(=O)c1cccc(NC(=O)N2C[C@H]3C[C@@H](C2)c2cccc(=O)n2C3)c1 | 4 |
| C[C@]12C[C@H](O)[C@@H](O)C[C@@H]1CC[C@@H]1[C@@H]2CC[C@]2(C)C(=O)CC[C@@H]12 | 5 |
| COC(=O)C1=CO[C@@H](C)[C@@H]2CN(CCc3c[nH]c4ccccc34)CC[C@H]12 | 3 |
| O=C(c1cccc(C(F)(F)F)c1)N1C[C@H]2C[C@@H](C1)c1cccc(=O)n1C2 | 0 |
| CCOC(=O)c1ccccc1N | 0 |

Additional entries follow.
| Molecule | Hedgehog |
| --- | --- |
| Cc1ccc(N)cc1N | 9 |
| CC[C@H]1CN(C)C[C@@]2(C(=O)OC)Cc3c([nH]c4ccccc34)C(=O)C[C@@H]12 | 10 |
| Cc1cc(OC(C)C(=O)N[C@H](C(=O)O)c2ccccc2)c2c3c(c(=O)oc2c1)CCC3 (stereo partly specified) | 4 |
| CC1(C)CC[C@]2(C)CC[C@]3(C)C4C[C@@H]5OO[C@@]6(O5)C(CCCC6(C)C)[C@]4(C)CC[C@@]3(C)C2C1 (stereo partly specified) | 3 |

High-throughput results as filed in PubChem BioAssay.
